# Screening results: PubChem, National Center for Advancing Translational Sciences (NCATS)
# Rango release inh – inhibition of RanGTP-driven Rango-importin beta dissociation; O95149+P62826; Potency, µM (doses to about 46.1 µM), inactives show top-dose activity change, negative = inhibition; actives 0.071% (n = 340,000); Biochemical FRET Rango-importin beta, RanGTP-induced dissociation; active means falling FRET ratio curve, often poorly fitted, with flat reads before Ran was added; inconclusive means other falling curves, or compound fluorescence or quenching; inactive means flat or rising ratio curve;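 further: potency means the concentration at half of the fitted maximal effect; % of control where 0% means no effect; nearly all actives have a fitted effect of over 45% in size; -100% = wells without RanGTP and RCC1; the record marks most hits as doubtful in a second field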
#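 Compounds sat 5 min at room temperature with 0.1 uM Rango biosensor plus 0.25 uM importin beta, then FRET pre-read. RanGTP-RCC1 (0.6 uM Ran, 2mM GTP, 0.2 uM RCC1) added for 45 min, and the CFP/YFP post-read measured blocked complex dissociation.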
# miR-21 FLuc – raises the signal of a miR-21 reporter; HeLa miR-21 FLuc reporter, luciferase, 48 h; Potency, µM (doses to about 38.3 µM), without a hit: at the top dose reporter change, positive = more light; 340,000 tested, under 10 active; AID 2288; active = well fitted rising curve with a large enough effect; inconclusive = small, poorly fitted or top-dose-only effect; inactive = no such curve, though single readings can be large or run the other way;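 further: % of control where 0% means no effect; miR-21 action dims this reporter so a rising signal means less miR-21 action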
#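 HeLa cells stably expressing CMV-driven firefly luciferase with a downstream miR-21 binding sequence, endogenously expressing miR-21, were treated with titrations (up to about 40uM final) for 48 hours at 37 degree Celsius. Luciferase luminescence was read after lysis.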
# GLA inh pH 4.5 – inhibitors of human alpha-galactosidase A at pH 4.5. P06280. 230,000 tested, under 10 active. activity change, negative = inhibition, % at 105 µM. AID 1467. purified enzyme, 4-MU-alpha-Gal fluorescence, pH 4.5; inconclusive = small, poorly fitted or top-dose-only inhibition, or a rising curve; inactive = flat fitted curve, though single readings scatter; no compound was filed as active;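 further: 0% = full activity with enzyme and -100% = basal without enzyme; dose as in the result columns while the protocol names 77 µM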
# Rango complex inh – prevents formation of the Rango-importin beta complex. Q14974. Rango CFP/YFP FRET sensor + importin beta, 45 min. Potency, µM (titrated, usually from 92.2 µM), for the others: top-dose inhibition of complex formation. actives 0.031% (n = 340,000). AID 540263; active = rising FRET ratio curve, often small or poorly fitted; inconclusive = mostly compound fluorescence or quenching in the first reads; inactive = flat curves in all reads;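 further: potency means the concentration at half of the fitted maximal effect; 0% = DMSO wells and 100% = buffer wells lacking importin beta; nearly all actives have a fitted effect of over 15% in size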
# Target sequence (Q14974 whole entry, looked up): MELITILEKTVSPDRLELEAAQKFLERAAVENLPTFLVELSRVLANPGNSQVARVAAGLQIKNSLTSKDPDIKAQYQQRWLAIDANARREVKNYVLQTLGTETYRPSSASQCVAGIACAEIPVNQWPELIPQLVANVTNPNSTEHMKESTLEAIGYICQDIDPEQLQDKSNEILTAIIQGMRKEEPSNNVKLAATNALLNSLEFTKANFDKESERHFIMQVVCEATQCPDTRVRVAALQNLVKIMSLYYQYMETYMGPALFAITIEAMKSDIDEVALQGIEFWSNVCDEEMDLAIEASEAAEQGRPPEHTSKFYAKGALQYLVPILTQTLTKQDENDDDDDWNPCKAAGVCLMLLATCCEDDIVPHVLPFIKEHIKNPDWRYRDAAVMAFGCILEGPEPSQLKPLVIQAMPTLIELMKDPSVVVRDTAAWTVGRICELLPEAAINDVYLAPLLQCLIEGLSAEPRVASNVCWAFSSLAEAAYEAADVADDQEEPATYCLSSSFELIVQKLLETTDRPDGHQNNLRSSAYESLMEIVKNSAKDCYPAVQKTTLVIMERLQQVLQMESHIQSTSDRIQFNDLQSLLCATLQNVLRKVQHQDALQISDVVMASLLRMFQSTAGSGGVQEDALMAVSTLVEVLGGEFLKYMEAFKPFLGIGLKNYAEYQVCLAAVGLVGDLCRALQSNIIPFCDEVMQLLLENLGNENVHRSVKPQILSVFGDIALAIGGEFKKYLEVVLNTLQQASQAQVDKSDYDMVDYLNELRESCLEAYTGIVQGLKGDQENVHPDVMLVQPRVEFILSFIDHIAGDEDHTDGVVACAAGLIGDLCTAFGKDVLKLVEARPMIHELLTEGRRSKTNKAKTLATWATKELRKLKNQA
#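 Inhibition scored from the CFP 486 nm/YFP 530 nm FRET ratio 45 min after adding 0.125 microM importin beta to 50 nM Rango biosensor preincubated 5 min with compound (room temperature, PBS with DTT, Tween-20, BSA). No-importin wells as positive control.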
# Numbers without * were called inactive; ? = inconclusive; / = no result given; & = joins results of further samples; [ ] = dose if it differs, or a comment. These rows are one share of the data. The share of hits here may be higher or lower than overall.
SMILES,Rango release inh,miR-21 FLuc,GLA inh pH 4.5,Rango complex inh
Cc1ccc(C)c(S(=O)(=O)NC(C)C(=O)NCc2ccccn2)c1 (configuration not stated),4%,-4%,/,2.8%
Cc1nn(CC(=O)Nc2ccc(S(=O)(=O)N(C)C)cc2)c(C)c1[N+](=O)[O-],-6%,-6%,-4,-4.0%
CCc1ccc2c(c1)C1(NN=C(c3cccc4ccccc34)S1)C(=O)N2 (configuration not stated),/,13%,-4,/
O=C(CNC(=O)c1ccc(Cl)cc1Cl)OCC(=O)c1ccc2c(c1)OCCO2,-16%,-6%,-3,-3.1%
Nc1ccc(CSc2ccccc2)cc1,8%,/,/,3.2%
Cc1ccc2c(c1)N(CC(=O)NCCc1ccc(Cl)cc1)C(=O)c1cccnc1O2,-4%,11%&-9%,/,-0.3%
Cc1nc(NC(=O)c2ccccc2)sc1-c1csc(Nc2ccc(Cl)cc2Cl)n1,/,-5%,-1,/
CCCn1c(=N)n(CC(=O)OCC)c2ccccc21,-7%,1%,-1,6.0%
Nc1nonc1C(=O)OCC(=O)N1CCOCC1,8%,-3%,-4,2.6%
Cc1cc(=O)oc2cc(NS(=O)(=O)c3ccc(F)cc3)ccc12,?,-43%,?,?
COC(=O)c1sccc1NC(=O)C1CC=CCC1C(=O)O (configuration not stated),23%,2%,-4,3.6%
COc1ccc(CNC(=O)Nc2ccc3c(c2)N(C)C(=O)CS3)cc1,-11%,9%,6,-2.1%
COc1ccc(C2CC(c3cccs3)=NN2c2ccccc2)cc1 (configuration not stated),?,-22%,?,?
COc1ccc(C(=O)Nc2cc3c4c(c2)C(C)C(=O)N4CCC3)cc1 (configuration not stated),-25%,/,/,-1.3%
CN1CCc2c(sc(NC(=O)CS(=O)(=O)c3ccc(F)cc3)c2C(N)=O)C1,?,/,/,?
COc1cc(/C=N/NC(=S)Nc2cccc(S(=O)(=O)N(C)C)c2)cc(OC)c1O,1%,0%,-4,?
CCCSc1ccc([C@@H]2[C@@H]3C(=O)N(C)C(=O)[C@@H]3[C@]3(C(=O)OC)CCCN23)cc1OC,-23%,/,/,-5.1%
O=C(NCCc1nnc2ccc(NCc3ccc(F)cc3)nn12)c1ccccc1,22%,3%,6,-0.4%
O=C(O)c1nn(-c2cccc(Cl)c2)c(=O)cc1O,30%,0%,6,0.4%
CC(NC(=O)COC(=O)c1ccc2ccccc2n1)C1CC2CCC1C2 (configuration not stated),5%,0%,-2,2.4%
Cn1cc(CC(=O)NC2CCCCC2)c2ccccc21,?,-12%,0,-14%
O=S(=O)(Nc1ccc2nc(-c3ccc(Br)o3)[nH]c2c1)c1ccccc1,/,-29%,1,/
O=C(Oc1cccc(-c2cnc3ccccc3n2)c1)c1ccco1,-2%,-41%,7,0.0%
O=S(=O)(c1cccc(C(F)(F)F)c1)N(CCCN1CCOCC1)Cc1cccs1,0%&-2%,-2%&-3%,-12&-7,-2.4%&-0.4%
CCOC(=O)c1c(-c2cccc([N+](=O)[O-])c2)csc1NC(=O)C1CCCCC1,3%,-3%,2,4.6%
# Next structures follow:
SMILES,Rango release inh,miR-21 FLuc,GLA inh pH 4.5,Rango complex inh
COc1ccc(C(=O)NC(C(=O)N2CCN(c3ccccc3O)CC2)C(C)C)cc1 (configuration not stated),-11%,9%,/,-1.1%
O=C(COc1ccc(Cl)cc1Cl)Nc1ccccc1NS(=O)(=O)c1cccs1,0%,-56%,5,0.8%
COc1ccc(NC(=O)C2CCCN(c3cnccn3)C2)cc1 (configuration not stated),1%,-11%,/,-0.9%
Cn1c(=O)c2c(nc(N3CCN(c4ccccc4)CC3)n2CCCc2ccccc2)n(C)c1=O,7%,-10%,-9,-1.2%
CC(=O)N1CCN(c2ccc(NC(=O)c3ccc([N+](=O)[O-])o3)cc2Cl)CC1,10%,6%,/,-7.0%
CC(C)N1CCC(N2CCN(Cc3cc4c(cc3Cl)OCO4)CC2CCO)CC1 (configuration not stated),-8%,-2%,4,5.8%
COc1ccccc1-c1nc2ccccc2nc1-c1ccccc1,-14%,6%,-2,5.5%
CCOC(=O)C1=CN(CC)S(=O)(=O)NC1c1ccc(F)c(Cl)c1 (configuration not stated),-13%,/,/,1.0%
C=C(C)Cn1c(C)cc(C)c(S(=O)(=O)c2ccc(C)cc2)c1=O,-12%,-8%,-1,-0.2%
Cc1nc2ccccc2n1CC(=O)N/N=C/c1cccnc1,6%,-2%,7,-3.6%
OC(Cc1ccncc1)(c1ccccc1)c1ccccc1,8%,/,/,-1.4%
COc1cc(CNC(C)C)c(Br)cc1OC1CCCC1,-25%,-2%,-2,-3.0%
C[C@H](CO)N1C[C@H](C)[C@@H](CN(C)C(=O)NC2CCCCC2)Oc2c(NC(=O)CCC(F)(F)F)cccc2C1=O,-9%,/,/,0.3%
O=C(Cn1c(=O)oc2cc(S(=O)(=O)N3CCCC3)ccc21)Nc1cccc(C(F)(F)F)c1,-10%,0%,0,6.3%
Cc1ccc(NC(=O)/C=C/c2ccc([N+](=O)[O-])s2)c(C)c1,?,?,5,?
CCC(CC)NC(=O)c1cccc(NC(=O)C(C)C)c1,-3%,-4%,1,-3.9%
Cc1ccc(NC(=O)Nc2nnc(Cc3ccc(F)cc3)s2)cc1,31%,-25%,/,3.6%
O=C(Nc1cc(Cl)cc(Cl)c1)C1CC(=O)N(C2CCCC2)C1 (configuration not stated),-14%,/,/,0.5%
CC(C)CC1CCCCC1OC(=O)CN1CCCCC1 (configuration not stated),-13%,-1%,3,2.6%
CC(C)(C)C(=O)Nc1ccccc1C(=O)Nc1ccncc1,1%,-6%,-1,3.5%
CN(C)c1ccc(/C=N/NC(=O)CNC(=O)c2ccco2)cc1,0%,-13%,6[21.1 µM],-2.1%
O=C(COC(=O)Cc1cccs1)Nc1ccccc1F,26%,1%,-1,-1.5%
Cc1ccc2c(c1)c1c3n2CC(=C2C(=O)OC(C)(C)OC2=O)NC3CCC1 (configuration not stated),?,3%,-2,?
CCOC(=O)c1[nH]c2ccc(Cl)cc2c1-c1ccccc1,-16%,-3%,9,2.0%
Cn1c(=O)[nH]c(NC2CCCCC2)c(N=O)c1=O,-1%,-12%,-8,-1.8%
# Next part.
SMILES,Rango release inh,miR-21 FLuc,GLA inh pH 4.5,Rango complex inh
CN(C)c1cccc(O)c1,-5%,/,/,2.1%
C=CCOc1c(CNc2nccs2)cccc1OCC,1%,-6%,-10,-1.1%
Cc1ccccc1CN(C)CC(=O)NC(C)CCc1ccccc1 (configuration not stated),3%,-4%,-8,2.2%
COc1ccc(S(=O)(=O)N(C)c2ccc(OCC(=O)Nc3cc(C)on3)cc2)cc1,25%,-1%,0,2.6%
CCN(CC)CCCN1C(=O)c2oc3ccccc3c(=O)c2C1c1cccs1 (configuration not stated),/,-6%,-1,/
CCC(c1nnnn1C1CCCC1)N1CCN(c2cccc(OC)c2)CC1 (configuration not stated),-21%,-1%,-1,3.3%
O=C(NN1CCOCC1)c1cn(-c2ccccc2)nc1-c1cccs1,23%,-7%,12,1.8%
CCN1CCN(C(=O)c2ccc3c(c2)N(Cc2ccccc2)C(=O)c2ccccc2S3(=O)=O)CC1,10%,2%&1%,/,-1.5%
CC(C)Oc1ccc(-c2nn(-c3ccccc3)cc2/C=c2\sc3ncnn3c2=O)cc1,/,-14%,-3,/
Cc1c(CC(Cl)(Cl)Cl)c2c(n1O)CC(C)(C)CC2=O,14%,-4%,1,-2.1%
N#Cc1ccccc1CSCCNC(=O)Cc1c(F)cccc1Cl,-6%,-16%,/,4.2%
COc1ccc(S(=O)(=O)NCCc2c(C)nn(C)c2Oc2ccccc2)cc1,1%,13%,-3,2.8%
O=c1[nH]c(/C=C\c2cccc(C(F)(F)F)c2)nc(O)c1[N+](=O)[O-],0%,0%,/,-0.1%
CCN1C(=O)C(=O)N(CC(=O)c2[nH]c(C)c(C(C)=O)c2C)C1=O,-1%,/,/,0.3%
CCCn1c(COc2ccccc2OC)nc2ccccc21,0%,-26%,/,-2.7%
CCOc1ccc(N2CSC3=C(C#N)C(c4ccco4)CC(=O)N3C2)cc1 (configuration not stated),-7%,-1%,-7,0.6%
Cn1nc2c(c1C(=O)N1CCCC(C(=O)c3cc(F)ccc3F)C1)CCCC2 (configuration not stated),-1%,-3%,6,0.7%
COC(=O)c1ccc(N2C(=O)c3ccc(OC)c(OC)c3C2=O)cc1,3%,-3%,0,2.6%
COc1ccc(-n2c(SCC(=O)OC(C)C)nnc2-c2ccccn2)cc1,-7%,-8%,2,-0.3%
NC(=O)c1nsc(C(=O)N(CC(=O)NCc2ccco2)c2ccccc2F)c1N,-8%,-12%,4,0.4%
COc1ccc(OC)c2c1C(=O)C(Cl)=C(Cl)C2=O,-9%,27%,-4,2.6%
O=C(CN1CCCCCC1)OCCN=C1NS(=O)(=O)c2ccccc21,?,1%,7,?
O=S(=O)(NCc1cn2ccsc2n1)c1cccs1,-11%,-19%,8,-0.6%
CCOc1ccc(CCNC(=O)COC(=O)C2CC2)cc1OCC,-4%,/,/,-0.1%
COc1ccc(-c2cc(C(=O)OCC(=O)Nc3cc(C)on3)c3ccccc3n2)cc1OC,?,-1%,17,?
# Going on with the list:
SMILES,Rango release inh,miR-21 FLuc,GLA inh pH 4.5,Rango complex inh
Cc1nc(/C=C/c2ccccc2)cc(/C=C/c2ccccc2)n1,17%,-28%,-7,-0.1%
COc1ccc2c(c1)CCc1sc(NC(=O)c3ccco3)nc1-2,28%,-27%,-3,-2.8%
N#Cc1ccccc1NC(=O)c1ccc2c(c1)OCCO2,0%,-58%,/,3.6%
CCn1c(C(=O)O)c(CC(=O)NC2CCCCCC2)c2ccccc21,-6%,-3%,0,-1.7%
CCN1C(=O)[C@@H]2[C@H](C1=O)[C@@H]1C(=O)Nc3ccccc3C(=O)N1[C@@H]2c1cccc(Cl)c1,0%,-4%,/,0.0%
CC1CCC(C(C)C)C(OC(=O)CSc2nccc(=O)[nH]2)C1 (configuration not stated),15%,-1%,-5,-1.4%
CCCCNc1ncnc2[nH]ncc12,-16%,/,/,2.4%
Cc1sc2nc(C(C)C)nc(SCC(=O)N3CCN(C(=O)c4ccco4)CC3)c2c1C,1%,-1%,4,-3.5%
Cc1[nH]c(=O)[nH]c(=O)c1S(=O)(=O)N1CCCc2ccccc21,1%,-1%,/,?
N#C/C(=C(/O)CN1CCN(c2ccccc2F)CC1)c1nc(-c2ccc(Cl)cc2)cs1,-13%,1%,2,1.1%
O=C(COc1ccccc1Br)N1CCN(c2ccccc2)CC1,7%,-40%,-8,1.8%
Cc1ccc(-n2c(=O)[nH]c3c(C(N)=O)nc(C(C)C)nc32)cc1,-5%,-11%,/,-2.0%
COc1ccccc1Nc1nc2ccccc2n2cnnc12,-8%,-10%,-4,-1.2%
CCOC(=O)c1ccc(N2Cc3ccccc3C2=NC(=O)c2ccncc2)cc1,-16%,-59%,-6,-4.6%
O=C(OCC(O)COc1ccccc1)c1ccc([N+](=O)[O-])cc1 (configuration not stated),-3%,1%,/,0.9%
Cc1cc(C[n+]2ccccc2)c2nsnc2c1,-8%,6%,4,4.5%
O=C(c1ccc(F)cc1)c1ccc(-c2ccc(F)cc2)nc1,0%,-15%,/,-1.8%
Cc1c(NS(=O)(=O)c2ccc(NCC3CCCO3)c([N+](=O)[O-])c2)c(=O)n(-c2ccccc2)n1C (configuration not stated),-10%,0%,-7,-1.7%
CCN(CCCNC(=O)CNC(=O)c1nn(-c2ccc(OC)cc2)c(=O)c2ccccc12)c1cccc(C)c1,-7%,24%,/,-2.3%
CC(C)N1CC(O)=C(c2nc3ccccc3[nH]2)C1=N,2%,-49%,-1,-1.2%

# Entries listed so far that have bromine:
SMILES,Rango release inh,miR-21 FLuc,GLA inh pH 4.5,Rango complex inh
O=S(=O)(Nc1ccc2nc(-c3ccc(Br)o3)[nH]c2c1)c1ccccc1,/,-29%,1,/
COc1cc(CNC(C)C)c(Br)cc1OC1CCCC1,-25%,-2%,-2,-3.0%
O=C(COc1ccccc1Br)N1CCN(c2ccccc2)CC1,7%,-40%,-8,1.8%
